From PubChem
VDR inh: blocks the human vitamin D receptor; P11473; VDR-SRC2-3 peptide fluorescence polarization, 2 h; Potency, µM, inactives show max response, negative = inhibition, hits mostly inhibitors; actives 0.93% (n = 400,000); active = well fitted inhibition curve with a large enough effect; inconclusive = small, poorly fitted or top-dose-only effect, or another doubt; inactive = no such curve, though single readings can be large or run the other way; note: series mostly up to about 120 µM
Target sequence (P11473 whole entry, looked up): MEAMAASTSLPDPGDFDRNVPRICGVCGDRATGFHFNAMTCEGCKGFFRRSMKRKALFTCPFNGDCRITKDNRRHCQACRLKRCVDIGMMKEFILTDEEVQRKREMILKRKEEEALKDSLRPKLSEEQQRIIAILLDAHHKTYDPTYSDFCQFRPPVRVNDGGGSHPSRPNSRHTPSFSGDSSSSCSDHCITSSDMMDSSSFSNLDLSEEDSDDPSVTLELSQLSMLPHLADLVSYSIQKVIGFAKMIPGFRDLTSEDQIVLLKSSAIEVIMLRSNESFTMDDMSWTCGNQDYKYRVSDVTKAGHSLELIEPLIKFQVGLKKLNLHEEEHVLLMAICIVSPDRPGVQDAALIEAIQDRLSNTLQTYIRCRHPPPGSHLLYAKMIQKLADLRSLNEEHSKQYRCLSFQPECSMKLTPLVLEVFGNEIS
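Signal is fluorescence polarization, reporting how far test compounds block the interaction of VDR with the SRC2-3 coregulator peptide after a 2 h room-temperature incubation.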
* = called active by the depositor; ? = inconclusive. % is set by controls: 0 for no effect and ±100 for the full control effect; potency is the fitted concentration of half-maximal effect. This is a subset; count on the stated rates, not on these rows.

SMILES | VDR inh
CC(=O)Nc1ccc(OCC(O)Cn2c3ccccc3c3ccccc32)c(C)c1 (centres undefined) | 8.8%
O=C(NC(=S)Nc1cccc(CO)c1)c1ccc(-c2ccccc2)cc1 | -16.0%
N/C(CSc1ccc(Cl)cc1)=N\S(=O)(=O)c1ccc(Cl)cc1 | 19.8%
COc1ccccc1CN(C)C(=O)CN1CCN(S(=O)(=O)c2ccc3c(c2)OCCCO3)CC1 | 15.5%
Cc1cccc2cc(CN(Cc3ccc(F)cc3)C(=O)N(C)C)c3nnnn3c12 | 17.6%
CCCOc1ccc(CNCCCOCC)cc1OC | 10.1%
CN1CCN(c2ccccc2NC(=O)COc2ccc(Br)cc2)CC1 | 10.7%
COc1ccc(CCNC(=O)Cc2c(C)c3cc4c(C)coc4c(C)c3oc2=O)cc1 | 12.8%
COc1ccc(-c2csc(=Nc3ccccc3)n2CCO)cc1F | -22.9%
COc1cc(C)c(S(=O)(=O)N2CCN=C2c2ccccc2)cc1C | -18.3%
Cc1ccc(C)c(NC(NC(=O)c2ccccn2)C(Cl)(Cl)Cl)c1 (centres undefined) | -0.2%
CSc1ccccc1NC(=O)CN(C)CC(=O)Nc1cccc(Br)c1 | -1.9%
CCOC(=O)N1CCN(C(=O)c2ccccc2CCc2ccccc2)CC1 | -7.3%
O=C1CC(c2ccccc2)=Nc2ccccc2N1 | -4.4%
C/C(=C\C(=O)Nc1cc(C)on1)c1ccccc1 | -9.5%
COc1ccc(C)cc1-n1nnnc1SC/C(O)=C(\C#N)c1nc2ccccc2[nH]1 | -9.6%
Cc1ccc(NC(=O)CCS(=O)(=O)c2cccc3nonc23)c(Cl)c1 | -6.1%
COc1cc(/C=N\Nc2cc(=O)n(C)c(=O)n2C)ccc1O | -11.3%
CC1(NC(=S)NCCO)CCS(=O)(=O)C1 (centres undefined) | -10.0%
COc1ccc(NC(=O)N/C=C/c2ccc(Cl)cc2)cc1 | -11.9%
CC(Oc1cc2oc(=O)c3c(c2cc1Cl)CCC3)C(=O)NC1CC(C)(C)NC(C)(C)C1 (centres undefined) | -2.1%
CCOC(=O)c1cnc2ccc(OC)cc2c1Nc1cccc(C(C)=O)c1 | 0.7%
CCN(CC(=O)NCc1cccs1)C(=O)c1cccc(S(=O)(=O)NCc2ccccc2)c1 | -23.1%
Cc1cc2c(=O)n(C)c(SCC(=O)Nc3ccccc3C)nc2s1 | 0.9%
CCOc1ccccc1-n1nnnc1SCC(=O)NC(=O)Nc1ccc2c(c1)OCCO2 | 3.1%
Nc1nonc1-c1nc2ccccc2n1CC(=O)Nc1ccc(F)cc1 | 7.2%
CCN(CC)S(=O)(=O)c1ccc(C(=O)NCc2n[nH]c(=S)n2-c2ccccc2OC)cc1 | -2.7%
Cc1ccc(CCN2CC(C(=O)O)CC2=O)cc1 (centres undefined) | 5.2%
CCOc1ncccc1C(=O)OCC(=O)NCCc1ccc(S(N)(=O)=O)cc1 | 1.0%
NC(=O)Cn1cnc(-c2ccccc2)c1 | -19.2%
CCOC(=O)CNC(=O)CSc1nc2cccnc2n1C1CCCCC1 | -0.2%
COc1ccc(-c2noc3c2-c2nc(-c4ccccc4)sc2CC3)cc1 | -21.6%
Cc1cc(OCC(=O)Nc2sc3c(c2C#N)CCC(C)C3)ccc1Cl (centres undefined) | 3.6%
COc1ccc(CNC(=O)CSc2nnc(C)s2)cc1 | -0.2%
S=C(NCc1ccc2[nH]c3c(c2c1)CCCC3)Nc1ccccc1 | -12.5%
O=C(CCNc1cccc(F)c1)c1cccc([N+](=O)[O-])c1 | 89.1µM*
CCC1CCCCN1CCCNC(=O)c1ccc(N2CCOCC2)c(NS(=O)(=O)c2ccc(OC)cc2)c1 (centres undefined) | 2.2%
O=C(COc1ccccc1Cl)Nc1ccc(-c2nc3ccccc3s2)cc1 | -5.8%
COc1ccc(C(C)=O)cc1COC(=O)c1cc(C)nc2ccccc12 | 24.7%
CC(=O)C[C@H](O)CC(=O)[C@@H]1OC(=O)CCCCCCCCc2ccccc21 | -1.6%
N=C(c1ccc([N+](=O)[O-])cc1)N1CCCCC1 | 5.0%
CC(C(=O)NC1CCCCC1)N1C(=O)C2C3C=CC(C3)C2C1=O (centres undefined) | 2.1%
Cc1onc(-c2ccccc2)c1C(=O)N/N=C/c1c(F)cccc1Cl | 8.5%
CC(=O)c1cc(C)ccc1OC(=O)c1ccco1 | -3.1%
Cc1cccc(N2CCN(C(=O)CCCOc3ccccc3)CC2)c1C | 9.4%
Cc1ccc(NCc2cccn2-c2nnc(N3CCC(C(=O)NCCc4ccccc4)CC3)s2)cc1 | -7.3%
COc1ccc(-n2nc3cc(C)c(NC(=O)c4ccc(-c5ccc(Br)cc5)o4)cc3n2)cc1 | -2.2%
COc1ccc(/C=C/c2nc3sc4c(c3c(=O)o2)CCC4)cc1 | -3.5%
COC(=O)c1cccc(Nc2ccc([N+](=O)[O-])cn2)c1 | 20.6%
CN(C)/C=N/C1=C(C#N)C(c2cccs2)c2ccc3ccccc3c2O1 (centres undefined) | 15.3%
O=c1oc2ccc(Br)cc2cc1-c1nc(-c2ccccc2)no1 | -8.3%
COc1ccc(-n2c(=O)c(-c3cc(F)cc(F)c3)nc3cncnc32)cc1 | 4.1%
Cc1ccc(C)c(Cn2nnc3c(=O)[nH]c(C(=O)Nc4ccc(F)cc4)nc32)c1 | 5.4%
Fc1ccccc1Cn1cc(C(=S)N2CCOCC2)c2ccccc21 | -1.5%
CC(C)C(=O)N1CCC2(CC1)Oc1ccc(Cl)cc1C(=O)C21CC(c2ccccc2)=NO1 (centres undefined) | 3.0%
O=C1CCN(Cc2ccccc2)C=C1c1ccc(Cl)cc1 | -21.0%
CCC(Sc1nc2n[nH]c(C)c2c(=N)n1-c1ccc(Br)cc1)C(=O)N(CC)CC (centres undefined) | 9.8%
O=C(CNC(=O)c1ccco1)OCC(=O)c1ccc(Cl)cc1Cl | 18.9%
O=[N+]([O-])c1ccc(N2CCCCC2)cc1N1CCOCC1 | 0.9%
Cc1cccc(Oc2nc3c(C)cccn3c(=O)c2/C=C(\C#N)c2nc3ccccc3[nH]2)c1 | 11.6%

A different layout for some results above:
CC(=O)Nc1ccc(OCC(O)Cn2c3ccccc3c3ccccc32)c(C)c1 (centres undefined)
  VDR inh = 8.8%
O=C(NC(=S)Nc1cccc(CO)c1)c1ccc(-c2ccccc2)cc1
  VDR inh = -16.0%
N/C(CSc1ccc(Cl)cc1)=N\S(=O)(=O)c1ccc(Cl)cc1
  VDR inh = 19.8%
COc1ccccc1CN(C)C(=O)CN1CCN(S(=O)(=O)c2ccc3c(c2)OCCCO3)CC1
  VDR inh = 15.5%

(listing goes on)
SMILES | VDR inh
O=C(NNC(=O)c1cccc2ccccc12)c1ccc(Cl)c(Cl)c1 | 2.1%
COc1ccc(NC(=O)CCc2nnc3n(C)c(=O)c4sccc4n23)cc1Cl | ?
O=C(NC(=S)N1CCc2ccccc21)c1ccc(Br)o1 | -8.7%
O=S(=O)(c1ccc(Br)s1)N1CCN(c2ccc(F)cc2)CC1 | -12.6%
O=C(CSc1c2c(nc3ccc(Cl)cc13)CCCC2)N1CCN(c2cccc(Cl)c2)CC1 | -8.9%
COc1cccc(CNC(=O)CC(c2ccc(C)cc2)N2Cc3ccccc3C2=O)c1 (centres undefined) | 6.6%
Cc1ccc(C)c2[nH]c(=O)c(CN(Cc3ccco3)C(=O)Nc3ccccc3)cc12 | 10.9%
CCc1ccc(NC(=O)Nn2cnnc2)cc1 | 1.8%
CC1CN(C(=O)CCC(=O)NCCCN2C(C)CCCC2C)c2ccccc2O1 (centres undefined) | -20.4%
O=C(NCCC1=CCCCC1)C1COc2ccccc2O1 (centres undefined) | -0.1%
CCOC(=O)N1CCN(C(=O)CN(c2cc(C(F)(F)F)ccc2Cl)S(C)(=O)=O)CC1 | 10.2%
O=C(/C=C/Nc1ccc(Cc2ccc(N/C=C/C(=O)C(F)(F)F)cc2)cc1)C(F)(F)F | -5.6%
O=C1Nc2ccccc2C(=O)N2[C@H](c3cccc(Br)c3)[C@@H]3C(=O)N(Cc4ccccc4)C(=O)[C@@H]3[C@H]12 | -2.6%
CSc1c(-c2ccccn2)c(N)nn1C(=O)C1CC1 | -5.9%
C=CCN1C(=O)C(CC(=O)O)SC1=Nc1ccc(C(=O)O)cc1 (centres undefined) | -9.6%
O=C1CCC(C(=O)N2CCCC(C(=O)c3ccc4ccccc4c3)C2)=NN1 (centres undefined) | 4.6%
COc1cccc(OCCOc2ccc(/C=C3\C(=N)N4N=C(S(C)(=O)=O)SC4=NC3=O)cc2OC)c1 | 16.9%
Cc1ccc2oc(=O)c3cnn(CC(=O)N4CCN(c5ccc(F)cc5)CC4)c3c2c1 | -29.3%
O=c1[nH]c2ccccc2c(O)c1-c1ccccc1 | 15.9%
COCCCN(Cc1ccco1)C(=O)c1cc2c(s1)-c1ccccc1OC2 | 8.6%

Look-ups from the list:
In VDR inh, CCN(CC)S(=O)(=O)c1ccc(C(=O)NCc2n[nH]c(=S)n2-c2ccccc2OC)cc1 reads -2.7%
In VDR inh, Cc1cccc(N2CCN(C(=O)CCCOc3ccccc3)CC2)c1C reads 9.4%

Next part.
SMILES | VDR inh
Cc1ccc(NC(=O)c2ccc(=O)n(CC(=O)Nc3cccc(C)c3)n2)cc1 | 13.0%
COCCn1cnc2c1c(=O)n(Cc1ccccc1C#N)c(=O)n2Cc1ccccc1 | 7.9%
O=C(Nc1ccc(Nc2ccccc2)cc1)c1cc([N+](=O)[O-])ccc1Cl | -12.9%
Cc1ccc(-c2nnnn2C2C/C(=N\NC(N)=S)C3OCC2O3)cc1 (centres undefined) | -3.4%
Cc1ccc(C)c(Cn2c(=O)n(CCCC(=O)NCCc3ccc(Cl)cc3)c(=O)c3ccccc32)c1 | 23.7%
Nc1nc2c(Cl)cc(Cl)cc2s1 | 2.6%
Cc1c(C(=O)NCc2ccccc2Cl)sc2ncnc(N(C)C3CCCCC3)c12 | 16.9%
c1ccc(-c2csc3ncnc(NCCN4CCOCC4)c23)cc1 | -8.8%
CC(=O)Nc1ccc(NC(=O)C2CCN(C(=O)c3ccc([N+](=O)[O-])cc3)CC2)cc1 | 20.6%
CC(NS(=O)(=O)c1ccc(Cl)c(Cl)c1)C(=O)OCC(=O)N1CCCCCC1 (centres undefined) | -8.5%
COc1ccc(S(=O)(=O)N(C)CC(=O)NCCC2=CCCCC2)cc1 | -6.1%
CC(C)NS(=O)(=O)c1ccc(Oc2ncc(C(F)(F)F)cc2Cl)cc1 | 13.1%
Cc1cc(C)n(-c2nc3ccccc3c(=O)n2OCC(=O)OCc2ccccc2)n1 | -6.0%
Cc1ccc(NC(=O)CSCc2cc(=O)n3ccsc3n2)c(C)c1 | -2.0%
CC1CCc2sc(C(=O)N(C)CC(=O)Nc3ccc(N4CCOCC4)cc3)cc2C1 (centres undefined) | 9.6%
COc1cccc(C(C(=O)NC2CCCC2)N(C(=O)c2ccco2)c2ccc(C(C)=O)cc2)c1OC (centres undefined) | -4.3%
Cc1nn(C)cc1C(N)=O | -0.6%
C[C@]12c3[nH]c4cc(-c5ccco5)ccc4c3CCN1C(=O)[C@@H](CC(=O)NCc1cccc(C(F)(F)F)c1)C[C@@H]2C(=O)N1CCCCC1 | -16.8%
COc1cc2c(cc1NC(=O)C(C)OC(=O)c1ccc(S(=O)(=O)Nc3ccccc3Cl)cc1)oc1ccccc12 (centres undefined) | 23.0%
CC1Cc2cc(S(=O)(=O)CCC(=O)NCc3ccco3)ccc2N1C(=O)C1CC1 (centres undefined) | -6.3%
Cc1cccc(Sc2nc(-c3ccccc3)ccc2C#N)c1 | -10.0%
O=C1OC(/C=C/c2ccccc2)=NC/1=C\c1cccnc1 | ?
Cc1ccc(CSCc2ccc(C(=O)NC3CCCC3)o2)cc1 | 8.0%
COc1ccccc1/C=N/OCc1ccc(C#N)cc1 | -7.2%
COc1cc(-c2noc(C)c2C(=O)NCCc2ccccc2)cc(OC)c1OC | 7.9%
CN(C)S(=O)(=O)c1cccc(NC(=O)COc2ccc(S(=O)(=O)N3CCOCC3)cc2Cl)c1 | 0.0%
O=C(Nc1ccc2c(c1)OCO2)c1cccc2c1C(=O)N(C1CCCCC1)C2 | 5.5%
O=C(Cn1nc(-c2ccccc2)c2ccccc2c1=O)Nc1ccc2c(c1)nc1n2CCOC1 | -10.8%
CCN(CC)S(=O)(=O)c1ccc(/C=C/C(=O)OCC(=O)c2c(N)n(C)c(=O)n(C)c2=O)cc1 | 11.0%
Cc1ccc[n+](CC(=O)Nc2ccc(C)c(C)c2)c1 | 6.0%
O=S(=O)(NCCc1ccc(Cl)cc1)c1cccs1 | 0.5%
CCOC(=O)C1CCN(C(=O)c2cc(S(=O)(=O)N(C)C)ccc2N2CCCC2)CC1 | -15.8%
Clc1ccc(OCc2noc(-c3ccsc3)n2)c(Cl)c1 | -1.0%
O=C(Nc1ccc(N2CCOCC2)cc1)c1ccc(Cl)c(S(=O)(=O)N2CCCCC2)c1 | 9.0%
C=CCNC(=O)c1cc2sccc2n1C | 2.3%
COc1cccc(-n2ccnc2SCC(=O)Nc2cccc3ccccc23)c1 | -7.4%
Cc1ccc(N=Cc2ccc(N(C)C)cc2)cc1C | 5.5%
CC1CCN(CCCNC(=O)c2cn(C)c3ccc(S(=O)(=O)N4CCCC4)cc3c2=O)CC1 | 4.1%
COc1cc2ncnc(NCc3cc(F)ccc3F)c2cc1OC | -24.4%
COc1cc(C(=S)N2CCOCC2)ccc1OC(=O)c1cccc(C)c1 | -8.3%

2 records drawn at random from those above, as already listed:
SMILES | VDR inh
COc1ccccc1/C=N/OCc1ccc(C#N)cc1 | -7.2%
O=C1OC(/C=C/c2ccccc2)=NC/1=C\c1cccnc1 | ?

Next part.
SMILES | VDR inh
CN(Cc1nc2ccccc2[nH]1)Cc1nc(CC2CC2)no1 | -3.6%
O=C(NN=C1CCCCCC1)c1cc2ccccc2cc1O | -6.9%
CC(C)c1ccc(OCC(=O)N(Cc2cccs2)C2CCS(=O)(=O)C2)cc1 (centres undefined) | -14.8%
O=C(NC1CC1)C1=C[C@H](c2ccccc2)C[C@H](OCc2ccc(CO)cc2)O1 | -27.3%
CCOC(=O)CSc1n[nH]c(=O)n1CCc1ccccc1 | 0.7%
